# HNF4A DNA FP: change in binding of human HNF4 alpha to DNA; HNF4a-FITC DNA binding, fluorescence polarization, 1 h; activity change, % at 10 µM; AID 1224865; P41235; hit rate 0.3% among 360,000; in the data active means activity change above about 30%, passing the limit was not always enough;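 further: controls were the assay level and a saturating level of protein; the project sought stronger binding though the title names inhibitors; some compounds called inactive have numbers as strong as hits; positive values seem to mean higher polarization but the record does not say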
# Target sequence (P41235 whole entry, looked up): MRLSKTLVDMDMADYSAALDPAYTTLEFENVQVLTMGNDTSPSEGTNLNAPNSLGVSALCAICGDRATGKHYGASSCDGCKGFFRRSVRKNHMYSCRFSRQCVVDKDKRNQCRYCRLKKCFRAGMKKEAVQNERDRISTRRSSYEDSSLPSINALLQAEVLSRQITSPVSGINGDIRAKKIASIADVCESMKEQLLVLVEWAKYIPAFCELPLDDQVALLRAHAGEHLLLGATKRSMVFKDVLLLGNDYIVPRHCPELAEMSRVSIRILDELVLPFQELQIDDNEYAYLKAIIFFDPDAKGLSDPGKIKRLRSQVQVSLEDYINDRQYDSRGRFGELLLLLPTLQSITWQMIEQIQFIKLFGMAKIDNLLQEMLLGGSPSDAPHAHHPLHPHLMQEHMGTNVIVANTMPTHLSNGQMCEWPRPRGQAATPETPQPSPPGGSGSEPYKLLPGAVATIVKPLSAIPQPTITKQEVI
# Ecoli rRNA inh: selective bacterial rRNA inhibition in E. coli. E. coli WT GFP vs humanized-ribosome RFP mutants, fluorescence, 24 h; hits give low values; DMSO median 0, no signal -100. GFP signal change (wild-type ribosome), % (test concentration not listed). hit rate 1.6% among 350,000;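 active means significant combined selectivity score with lowered wild-type GFP, culture density cut under 30%, mutant RFP and density less affected; inactive means any of these conditions unmet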; further: one replicate is shown; some compounds called inactive have numbers as strong as hits
# Ecoli growth: blocks Escherichia coli growth; OD600, 23 h; hits give low values; OD600 absorbance (test concentration not listed); hit rate 0.21% among 330,000; AID 1053175;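 active means OD600 absorbance below the run mean of sample wells minus 3.6 SD, in any replicate, cut at about 0.56 in these data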;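 further: stock transfer was 300 nL into about 60 µL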
# ALR H2O2 inh: human ALR oxidase inhibition via reduced H2O2; P55789; purified ALR, DTT oxidation, H2O2 HRP-luminol luminescence; inhibition, % (no concentration beside the values); hit rate 3.8% among 290,000; AID 485317;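 active means mean and each replicate at 75% or more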;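 further: stock transfer was 7.5 nL into about 7.5 µL; 0% = neutral wells and 100% = wells with inactivated enzyme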
# Target sequence (P55789 whole entry, looked up): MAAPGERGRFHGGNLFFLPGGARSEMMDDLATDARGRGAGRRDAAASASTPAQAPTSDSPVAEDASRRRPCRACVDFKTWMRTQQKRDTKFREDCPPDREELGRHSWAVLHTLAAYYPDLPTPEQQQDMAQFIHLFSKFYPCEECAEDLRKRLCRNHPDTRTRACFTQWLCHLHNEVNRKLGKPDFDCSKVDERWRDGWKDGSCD
# UCH37 inh: blocks the human deubiquitinase UCH37; purified proteasome/UCH37, Ub-AMC cleavage fluorescence; inhibition, % (test concentration not listed); hit rate 0.33% among 330,000; AID 588478;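 active means mean of two replicates above 20%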;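 further: 0% = compound-free wells with enzyme and 100% = wells lacking proteasome; stock transfer was 100 nL into about 20 µL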
# Target sequence (Q9Y5K5 whole entry, looked up): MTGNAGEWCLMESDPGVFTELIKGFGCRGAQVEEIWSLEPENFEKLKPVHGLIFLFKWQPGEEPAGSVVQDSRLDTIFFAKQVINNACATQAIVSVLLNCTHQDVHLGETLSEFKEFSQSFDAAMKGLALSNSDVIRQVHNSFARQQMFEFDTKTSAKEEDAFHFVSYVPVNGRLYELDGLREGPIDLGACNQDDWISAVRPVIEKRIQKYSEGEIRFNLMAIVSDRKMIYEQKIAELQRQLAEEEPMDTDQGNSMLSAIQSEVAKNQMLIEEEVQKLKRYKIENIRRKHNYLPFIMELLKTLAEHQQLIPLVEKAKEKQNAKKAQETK
#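 Reagent: Ub-AMC substrate; assay system: Proteasome-associated human UCH37 deubiquitinase; controls: no-proteasome and no-compound wells; read-out: % inhibition of Ub-AMC cleavage fluorescence; timing: 30 min preincubation with enzyme, 25 min cleavage at room temperature; signal: AMC fluorescence from Ub-AMC cleavage, excitation 355 nm, emission 460 nm; buffer or medium: Tris-HCl pH 7.4 plus ovalbumin, ATP-MgCl2, DTT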
# FGF22 binding: FGF22 (human) thermal shift binding; hit rate 1.5% among 340,000; recombinant FGF22 thermal shift, SYPRO orange fluorescence; percent of sucrose octasulfate shift, DMSO zero; AID 651658; calls only at 9.99 µM;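 active means melting point raised past a set limit in the mean and every replicate; three in four hits are not shown here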
# Beta2AR agonist: activates human beta-2 adrenergic receptor causing internalization | P07550 | Am2.2-beta2AR cells, FAP receptor internalization, flow cytometry; reference of the scale not given here | response, % (test concentration not listed) | hit rate 0.43% among 340,000 | AID 504454;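 active means response above a set limit, near 3 SD of response in nonfluorescent compounds, cut at about 42% in these data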;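 further: stock transfer was 100 nL into about 11 µL; a reference agonist was the positive control; negative values mostly stem from fluorescent compounds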
# Ecoli rRNA inh OD600: recorded beside Ecoli rRNA inh, whose call it bears; OD600 change, %; measured here: OD600 growth;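 optical density of the mix in the first replicate; 0 = DMSO median and -100 = no signal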
# Ecoli rRNA inh RFP: also measured in Ecoli rRNA inh; calls as there; RFP signal change, %; measured here: RFP humanized mutant strains;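 first replicate; 0 = DMSO median and -100 = no signal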
# * = called active by the depositor; i = inactive; · = not tested or not shown. An excerpt; the hit share may differ from the screen's.
(1) COc1cccc(C(C(=O)NC(C)(C)C)N(CC(C)C)C(=O)CCC(=O)Nc2cc(C)on2)c1OC (stereo not drawn)
(2) CCN(CC)C(=O)CSc1nnc(-c2ccncc2)n1N
(3) O=C(Nc1nccs1)c1ccc(Cl)c(S(=O)(=O)N2CCOCC2)c1
(4) CCOC(=O)CC1COc2ccccc2N1C(=O)c1ccc(F)cc1 (stereo not drawn)
(5) Cc1onc(-c2ccccc2)c1C(=O)N(Cc1ccco1)Cc1cccs1
(6) CC(=O)Nc1ccc(OCC(=O)NC(C)C(C)C)cc1 (stereo not drawn)
(7) CCOc1ccc2nc(N/C(N)=N/S(=O)(=O)c3ccc(C)cc3)nc(C)c2c1
(8) CC(C)c1ccc(Nc2nnc(SC3CCOC3=O)s2)cc1 (stereo not drawn)

entry no.	1	2	3	4	5	6	7	8
HNF4A DNA FP	0.3	2.1	-1.2	-3.6	-2.0	0.2	3.5	5.8
Ecoli rRNA inh	5	·	·	-16	-47	·	8	12
Ecoli rRNA inh OD600	-3	·	·	-2	-68	·	13	14
Ecoli rRNA inh RFP	-1.9	·	·	1.3	-11	·	1.6	3.1
Ecoli growth	0.66	0.66	0.71	0.7	0.71	0.77	·	0.67
ALR H2O2 inh	-2	8	-2	-24	·	4	·	-3
UCH37 inh	-0.3	-3.0	0.8	3.3	-1.8	2.1	·	3.9
FGF22 binding	·	·	·	i	i	·	i	i
Beta2AR agonist	-1	1	-1	-6	4	-6	·	8

(9) COc1ccc(CCN(C)C(=O)C(CCSC)NC(=O)c2ccco2)cc1OC (stereo not drawn)
(10) CCN(CC)C(=O)[C@H]1C[C@H](CC(=O)NC(C)(C)C)C(=O)N2CCc3c([nH]c4cc(-c5ccco5)ccc34)[C@]12C
(11) Cc1cc(C)n2nc(-c3ccc(F)cc3)nc2n1
(12) CCC1CCc2sc(C(=O)NCc3ccccn3)cc2C1 (stereo not drawn)
(13) CN1CCCC(C(=O)C(C#N)c2ccccc2)C1 (stereo not drawn)
(14) COc1ccc(C(=O)NC(=S)NC(C)(C)C)cc1Br
(15) CC(=O)Oc1cccc(NC(=O)c2ccc3c(c2)C(=O)N(CC(C)C)C3=O)c1
(16) Cc1nnc2n1N=C(c1ccc(OC(F)F)cc1)C(C)S2 (stereo not drawn)

entry no.	9	10	11	12	13	14	15	16
HNF4A DNA FP	2.3	8.5	1.4	1.4	-1.5	-1.5	-6.0	-2.4
Ecoli rRNA inh	0	17	·	-24	·	·	7	-3
Ecoli rRNA inh OD600	2	17	·	-45	·	·	15	-3
Ecoli rRNA inh RFP	-3.9	7.6	·	4.0	·	·	1.2	-1.8
Ecoli growth	0.72	0.68	0.66	0.66	0.72	·	0.7	0.68
ALR H2O2 inh	-16	·	·	-9	35	0	2	-8
UCH37 inh	1.5	-15	0.2	-2.5	-1.5	·	4.9	-0.5
FGF22 binding	i	i	·	i	·	·	i	i
Beta2AR agonist	4	2	-9	6	7	-3	6	-5

# Another view of 13 compounds above.
item | compound | HNF4A DNA FP | Ecoli rRNA inh | Ecoli rRNA inh OD600 | Ecoli rRNA inh RFP | Ecoli growth | ALR H2O2 inh | UCH37 inh | FGF22 binding | Beta2AR agonist
1 | COc1cccc(C(C(=O)NC(C)(C)C)N(CC(C)C)C(=O)CCC(=O)Nc2cc(C)on2)c1OC (stereo not drawn) | 0.3 | 5 | -3 | -1.9 | 0.66 | -2 | -0.3 | · | -1
2 | CCN(CC)C(=O)CSc1nnc(-c2ccncc2)n1N | 2.1 | · | · | · | 0.66 | 8 | -3.0 | · | 1
3 | O=C(Nc1nccs1)c1ccc(Cl)c(S(=O)(=O)N2CCOCC2)c1 | -1.2 | · | · | · | 0.71 | -2 | 0.8 | · | -1
4 | CCOC(=O)CC1COc2ccccc2N1C(=O)c1ccc(F)cc1 (stereo not drawn) | -3.6 | -16 | -2 | 1.3 | 0.7 | -24 | 3.3 | i | -6
5 | Cc1onc(-c2ccccc2)c1C(=O)N(Cc1ccco1)Cc1cccs1 | -2.0 | -47 | -68 | -11 | 0.71 | · | -1.8 | i | 4
6 | CC(=O)Nc1ccc(OCC(=O)NC(C)C(C)C)cc1 (stereo not drawn) | 0.2 | · | · | · | 0.77 | 4 | 2.1 | · | -6
7 | CCOc1ccc2nc(N/C(N)=N/S(=O)(=O)c3ccc(C)cc3)nc(C)c2c1 | 3.5 | 8 | 13 | 1.6 | · | · | · | i | ·
8 | CC(C)c1ccc(Nc2nnc(SC3CCOC3=O)s2)cc1 (stereo not drawn) | 5.8 | 12 | 14 | 3.1 | 0.67 | -3 | 3.9 | i | 8
9 | COc1ccc(CCN(C)C(=O)C(CCSC)NC(=O)c2ccco2)cc1OC (stereo not drawn) | 2.3 | 0 | 2 | -3.9 | 0.72 | -16 | 1.5 | i | 4
10 | CCN(CC)C(=O)[C@H]1C[C@H](CC(=O)NC(C)(C)C)C(=O)N2CCc3c([nH]c4cc(-c5ccco5)ccc34)[C@]12C | 8.5 | 17 | 17 | 7.6 | 0.68 | · | -15 | i | 2
11 | Cc1cc(C)n2nc(-c3ccc(F)cc3)nc2n1 | 1.4 | · | · | · | 0.66 | · | 0.2 | · | -9
12 | CCC1CCc2sc(C(=O)NCc3ccccn3)cc2C1 (stereo not drawn) | 1.4 | -24 | -45 | 4.0 | 0.66 | -9 | -2.5 | i | 6
13 | CN1CCCC(C(=O)C(C#N)c2ccccc2)C1 (stereo not drawn) | -1.5 | · | · | · | 0.72 | 35 | -1.5 | · | 7

# Later entries.
(17) O=C(NCc1ccc(Cl)cc1)C1CCC(CNS(=O)(=O)c2ccccc2)CC1 (stereo not drawn)
(18) Cc1cc(C)nc(SCc2nnc(SCC(N)=O)o2)n1
(19) CCCN(CC(=O)Nc1ccccc1C)C(=O)CCCc1c[nH]c2ccccc12
(20) Oc1ccc(/C=N/Nc2ncc(Cl)cc2Cl)cc1
(21) COc1cccc(C2=NN(S(C)(=O)=O)C(c3cccs3)C2)c1 (stereo not drawn)
(22) CCOC(=O)CCCSc1nc(-c2ccc3c(c2)OCO3)cc(C(F)(F)F)c1C#N
(23) CC(C)(C)c1ccc(-c2noc(CCC(=O)Nc3cccnc3)n2)cc1
(24) O=C1/C(=C\c2ccco2)SC(=S)N1C1CCS(=O)(=O)C1 (stereo not drawn)

entry no.	17	18	19	20	21	22	23	24
HNF4A DNA FP	-2.0	-2.0	2.0	5.1	4.9	-1.4	2.1	0.0
Ecoli rRNA inh	·	16	5	11	-12	·	-27	1
Ecoli rRNA inh OD600	·	7	8	8	-10	·	-61	5
Ecoli rRNA inh RFP	·	1.5	-0.5	3.0	-1.8	·	1.4	13
Ecoli growth	0.69	0.67	0.71	·	0.65	0.69	·	·
ALR H2O2 inh	-7	-1	-2	·	·	16	-1	-15
UCH37 inh	6.6	2.3	-0.3	·	1.5	i	·	·
FGF22 binding	·	i	i	i	i	·	i	i
Beta2AR agonist	19	-2	-1	-29	-6	-2	-8	-3

(25) COc1cccc(C(c2nnnn2CC2CCCO2)N2CCN(C(=O)c3ccco3)CC2)c1OC (stereo not drawn)
(26) COc1ccc(NC2c3ncccc3C(=O)N2Cc2cccs2)cc1 (stereo not drawn)
(27) COc1c2ccccc2nc2ccccc12
(28) Cc1nn(CC(=O)NCC(C)c2ccccc2)c(=O)c2cc(-c3ccccc3)nn12 (stereo not drawn)
(29) O=S(=O)(Cc1ccccc1)N1CCN(Cc2ccc(F)cc2Cl)CC1
(30) Cc1[nH]nc2ncc(C(=O)c3ccccc3O)cc12
(31) Cc1cccc(C(C)C)c1NC(=O)c1cccnc1
(32) CCCCNC(=O)c1nc(C2CCN(S(=O)(=O)c3cccc(C(F)(F)F)c3)CC2)oc1-c1ccccc1

entry no.	25	26	27	28	29	30	31	32
HNF4A DNA FP	-0.5	6.2	-0.7	2.9	2.0	-8.2	-1.3	4.8
Ecoli rRNA inh	11	8	-2	2	8	·	·	0
Ecoli rRNA inh OD600	9	4	-13	6	9	·	·	12
Ecoli rRNA inh RFP	0.6	-0.6	-5.9	-2.9	2.4	·	·	-4.1
Ecoli growth	0.67	0.7	0.59	0.68	0.79	0.68	0.75	·
ALR H2O2 inh	4	96*	-7	0	-5	4	-2	·
UCH37 inh	-1.3	2.3	-298	0.3	1.8	-2.9	1.0	·
FGF22 binding	i	i	i	i	i	·	·	i
Beta2AR agonist	-16	-7	-2	-4	0	1	-3	·

(33) Cc1c(NC(=O)CN2C(=O)c3ccccc3C2=O)c(=O)n(-c2ccccc2)n1C
(34) O=C(N/N=C/c1ccccc1O)C(=O)Nc1ccccn1
(35) CCC(C)[C@H](NC(=O)N1CCn2c1nc1ccccc12)C(=O)NCC1CCCO1 (stereo partly drawn)
(36) FC(F)(F)c1cccc(OCCOCCn2cncn2)c1
(37) COc1ccc(Cc2nc(-c3ccc(Br)cc3)no2)cc1
(38) CSCC[C@H](N)C(=O)N1CCC(C(=O)N[C@H](C(=O)NCc2ccccc2F)C(C)C)CC1
(39) Cc1nc2sccn2c(=O)c1S(=O)(=O)NCc1ccccc1
(40) Cc1c(NC(=O)C(C)OC(=O)c2cccc([N+](=O)[O-])c2)c(=O)n(-c2ccccc2)n1C (stereo not drawn)

entry no.	33	34	35	36	37	38	39	40
HNF4A DNA FP	-4.4	4.7	-2.2	0.2	2.6	1.9	1.5	-0.6
Ecoli rRNA inh	·	19	3	·	-25	-28	2	7
Ecoli rRNA inh OD600	·	7	3	·	-26	-34	18	10
Ecoli rRNA inh RFP	·	-2.8	3.5	·	-7.7	-22	3.3	0.2
Ecoli growth	0.74	·	0.63	0.69	0.68	0.74	0.78	0.65
ALR H2O2 inh	-1	3	59	-6	·	-47	-7	6
UCH37 inh	-3.9	·	1.5	2.3	1.3	-0.7	-2.2	1.0
FGF22 binding	·	i	i	·	·	i	i	i
Beta2AR agonist	1	-5	-7	-2	-7	1	-19	-8

(41) CC(=O)Nc1ccc(S(=O)(=O)N(C)CC(=O)Nc2ccc(Br)cc2F)cc1
(42) COc1cc2c(cc1OC)C1(CCCC1)CNC2c1cccc([N+](=O)[O-])c1 (stereo not drawn)
(43) CCCCn1c(SCC(=O)N2CCCC2)nc2c1c(=O)n(C)c(=O)n2C
(44) Cc1c(NC(=O)C(C)OC(=O)CNC(=O)c2ccc(C(C)(C)C)cc2)c(=O)n(-c2ccccc2)n1C (stereo not drawn)
(45) COc1ccccc1CCCNC(=O)C1CCC(=O)N(CCc2ccc(Cl)cc2)C1 (stereo not drawn)
(46) COc1ccc(NC(=O)CSc2nnc3ccc(-c4cccnc4)nn23)cc1
(47) Cc1cc(NC(=O)CN2C(=O)NC(C)(CC(C)C)C2=O)no1 (stereo not drawn)
(48) COc1ccc(NC(C)=O)cc1NC(=O)CSc1nnc(-c2ccncc2)n1C

entry no.	41	42	43	44	45	46	47	48
HNF4A DNA FP	-0.1	-1.2	-0.9	-0.2	3.2	2.0	-4.8	-1.9
Ecoli rRNA inh	1	7	·	·	-18	0	22	·
Ecoli rRNA inh OD600	8	10	·	·	-36	10	14	·
Ecoli rRNA inh RFP	-2.1	0.3	·	·	-2.0	-3.1	0.5	·
Ecoli growth	0.66	0.68	0.68	0.72	0.72	0.68	0.7	0.67
ALR H2O2 inh	-2	51	-8	-2	-11	-5	2	-4
UCH37 inh	2.9	2.1	1.7	0.6	2.6	4.8	4.0	4.0
FGF22 binding	i	i	·	·	i	i	i	·
Beta2AR agonist	11	-1	-1	-2	4	-1	-6	-1
